Vaccinia stage – blocks a specific stage of Vaccinia orthopoxvirus infection; Vaccinia-infected cells, mCherry/Venus stage reporter fluorescence; hits give low values; some inactives read as strong as hits; activity change (mCherry), % (concentration not given with the values); hit rate 0.01% among 89,000; AID 1053133;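 active means mCherry past -33% and 40 or more points under the early reporter, replicates agreeing; inconclusive means past -33% without that gap or agreement; tested in A549 cells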;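 further: scaled between vehicle wells and reference inhibitor wells; 23 nL library stock went into each well; one replicate is shown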
Vaccinia stage Venus – second read-out of Vaccinia stage, no call of its own (marks repeat the call); activity change (Venus), %; measured here: Venus reporter, other viral stage;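 negative = less Venus signal; first of two replicates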
* marks the source's active call; other numbers are inactive results; & = joins results of further samples. The list is partial; the hit share may differ from the screen's.

What do the screens show for `CO[C@@H]1CN(C)C(=O)c2cc(NC(=O)Nc3c(C)noc3C)ccc2OC[C@H](C)N(CC2CC2)C[C@@H]1C`?
Vaccinia stage: 3; Vaccinia stage Venus: 0

How did CC(=O)N(C[C@@H]1[C@@H](c2ccc(C3=CCCC3)cc2)[C@@H](CO)N1CC1CC1)C(C)C do in these assays?
Vaccinia stage: -28; Vaccinia stage Venus: -18

What do the screens show for `OC[C@@H]1[C@H](c2ccc(Br)cc2)[C@@H]2CNCCCCN12`?
Vaccinia stage: 7; Vaccinia stage Venus: 6

Results for C[C@H]1CCCCO[C@H](CN(C)Cc2ccccc2)[C@@H](C)CN([C@@H](C)CO)C(=O)c2cc(NS(=O)(=O)c3cn(C)cn3)ccc2O1 ?
Vaccinia stage: 40; Vaccinia stage Venus: 23

What do the screens show for `O=C(C[C@@H]1CC[C@H]2[C@@H](COC[C@H](O)CN2C(=O)Nc2cccc(Cl)c2)O1)NCc1ccccc1F`?
Vaccinia stage: 2; Vaccinia stage Venus: 4

What do the screens show for `CO[C@@H]1CN(C)C(=O)c2cc(NC(=O)Nc3ccccc3Cl)ccc2OC[C@@H](C)N(S(=O)(=O)CC(F)(F)F)C[C@H]1C`?
Vaccinia stage: -20; Vaccinia stage Venus: -8

How did C[C@@H]1CN([C@H](C)CO)C(=O)c2cc(NC(=O)CCCN(C)C)ccc2O[C@H]1CN(C)Cc1ccc(C(F)(F)F)cc1 do in these assays?
Vaccinia stage: -1; Vaccinia stage Venus: 2

How did Cc1ccc(S(=O)(=O)N(C)C[C@H]2Oc3ccc(NS(=O)(=O)c4c(C)noc4C)cc3C(=O)N([C@@H](C)CO)C[C@@H]2C)cc1 do in these assays?
Vaccinia stage: 20; Vaccinia stage Venus: 15

How did C/C=C/c1ccc2c(c1)O[C@@H](CN(C)C(=O)c1cccc(F)c1)[C@@H](C)CN([C@H](C)CO)S2(=O)=O do in these assays?
Vaccinia stage: -31; Vaccinia stage Venus: -25

Results for C[C@H](CO)N1C[C@H](C)[C@@H](CN(C)C(=O)Nc2ccc(F)cc2)Oc2c(NS(=O)(=O)c3ccc(F)cc3)cccc2C1=O ?
Vaccinia stage: 0; Vaccinia stage Venus: 0

Results for C[C@@H]1CN([C@@H](C)CO)C(=O)c2c(c3ccccc3n2C)-c2ccccc2CO[C@@H]1CN(C)Cc1ccc(O)cc1 ?
Vaccinia stage: -24; Vaccinia stage Venus: -7

How did C[C@@H]1CN([C@@H](C)CO)C(=O)c2cc(-c3ccc(F)cc3)cnc2O[C@@H]1CN(C)C(=O)C1CCC1 do in these assays?
Vaccinia stage: 7; Vaccinia stage Venus: 1

Results for C[C@@H](NC(=O)[C@@H]1[C@@H](CO)[C@@H]2Cn3c(cccc3=O)[C@@H]2N1CCC(F)(F)F)c1ccccc1 ?
Vaccinia stage: 9; Vaccinia stage Venus: 6

Results for Cc1ccc(S(=O)(=O)N(C)C[C@H]2OCCCC[C@H](C)Oc3ccc(NS(=O)(=O)c4ccc(F)cc4)cc3C(=O)N([C@H](C)CO)C[C@H]2C)cc1 ?
Vaccinia stage: inconclusive

What do the screens show for `CCC(=O)N1[C@@H]2c3ccc(/C=C/c4ccccc4)c(=O)n3C[C@@H]2[C@@H](CO)[C@@H]1C(=O)Nc1nccs1`?
Vaccinia stage: 7; Vaccinia stage Venus: 1

Results for CC(C)CC#Cc1ccc2c(c1)O[C@H](CN(C)Cc1ccccn1)[C@H](C)CN([C@@H](C)CO)S2(=O)=O ?
Vaccinia stage: inconclusive

How did CC(C)CC#Cc1ccc2c(c1)O[C@H](CN(C)C(=O)CN(C)C)[C@@H](C)CN([C@H](C)CO)S2(=O)=O do in these assays?
Vaccinia stage: inconclusive

Results for C[C@H](CO)N1C[C@H](C)[C@@H](CN(C)C(=O)C2CCOCC2)Oc2ncc(-c3ccncc3)cc2C1=O ?
Vaccinia stage: 17; Vaccinia stage Venus: 10

How did CNC(=O)C[C@H]1CC[C@@H]2[C@@H](COc3ccc(NC(=O)Nc4ccc(F)c(F)c4)cc3C(=O)N2C)O1 do in these assays?
Vaccinia stage: 10; Vaccinia stage Venus: 3

Results for C[C@@H]1CN([C@@H](C)CO)S(=O)(=O)c2ccc(Br)cc2O[C@H]1CN(C)Cc1ccncc1 ?
Vaccinia stage: -5; Vaccinia stage Venus: -4

Quoted from the results shown (nine entries):
How did C[C@@H]1CN([C@@H](C)CO)C(=O)c2cc(-c3ccc(F)cc3)cnc2O[C@@H]1CN(C)C(=O)C1CCC1 do in these assays?
Vaccinia stage: 7; Vaccinia stage Venus: 1

Results for C[C@@H](NC(=O)[C@@H]1[C@@H](CO)[C@@H]2Cn3c(cccc3=O)[C@@H]2N1CCC(F)(F)F)c1ccccc1 ?
Vaccinia stage: 9; Vaccinia stage Venus: 6

Results for Cc1ccc(S(=O)(=O)N(C)C[C@H]2OCCCC[C@H](C)Oc3ccc(NS(=O)(=O)c4ccc(F)cc4)cc3C(=O)N([C@H](C)CO)C[C@H]2C)cc1 ?
Vaccinia stage: inconclusive

What do the screens show for `CCC(=O)N1[C@@H]2c3ccc(/C=C/c4ccccc4)c(=O)n3C[C@@H]2[C@@H](CO)[C@@H]1C(=O)Nc1nccs1`?
Vaccinia stage: 7; Vaccinia stage Venus: 1

Results for CC(C)CC#Cc1ccc2c(c1)O[C@H](CN(C)Cc1ccccn1)[C@H](C)CN([C@@H](C)CO)S2(=O)=O ?
Vaccinia stage: inconclusive

How did CC(C)CC#Cc1ccc2c(c1)O[C@H](CN(C)C(=O)CN(C)C)[C@@H](C)CN([C@H](C)CO)S2(=O)=O do in these assays?
Vaccinia stage: inconclusive

Results for C[C@H](CO)N1C[C@H](C)[C@@H](CN(C)C(=O)C2CCOCC2)Oc2ncc(-c3ccncc3)cc2C1=O ?
Vaccinia stage: 17; Vaccinia stage Venus: 10

How did CNC(=O)C[C@H]1CC[C@@H]2[C@@H](COc3ccc(NC(=O)Nc4ccc(F)c(F)c4)cc3C(=O)N2C)O1 do in these assays?
Vaccinia stage: 10; Vaccinia stage Venus: 3

Results for C[C@@H]1CN([C@@H](C)CO)S(=O)(=O)c2ccc(Br)cc2O[C@H]1CN(C)Cc1ccncc1 ?
Vaccinia stage: -5; Vaccinia stage Venus: -4

Additional entries:
What do the screens show for `CCCNC(=O)N(C)C[C@@H]1Oc2cc(-c3cncnc3)ccc2S(=O)(=O)N([C@H](C)CO)C[C@H]1C`?
Vaccinia stage: 30; Vaccinia stage Venus: 20

What do the screens show for `CCCNC(=O)N[C@@H]1CC[C@H](CCn2cc(C3CCCC3)nn2)O[C@H]1CO`?
Vaccinia stage: 7; Vaccinia stage Venus: 8

How did C[C@@H]1CCCCO[C@@H](CN(C)C(=O)Nc2ccc(C(F)(F)F)cc2)[C@H](C)CN([C@H](C)CO)C(=O)c2cc(NC(=O)Nc3cccc4ccccc34)ccc2O1 do in these assays?
Vaccinia stage: -15; Vaccinia stage Venus: -7

What do the screens show for `CC(C)C#Cc1ccc([C@H]2[C@H](C#N)N(C(=O)c3ccccn3)[C@H]2CO)cc1`?
Vaccinia stage: 13; Vaccinia stage Venus: 7

What do the screens show for `C[C@H](CO)N1C[C@H](C)[C@H](CN(C)C(=O)c2ccccc2F)Oc2ncc(Br)cc2C1=O`?
Vaccinia stage: 6&1; Vaccinia stage Venus: 2&-3

What do the screens show for `COc1ccc(C#Cc2cccc(-c3nc(C(=O)N4CCN(C)CC4)cc4c3[C@@H](CCO)N(S(=O)C(C)(C)C)C4)c2)cc1OC` (stereo partly drawn)?
Vaccinia stage: 4; Vaccinia stage Venus: 2

Results for CN(C)CC(=O)N1[C@@H]2Cn3c(ccc(C4=CCCC4)c3=O)[C@H]1[C@@H](C(=O)NCC1CCCCC1)[C@@H]2CO ?
Vaccinia stage: -2; Vaccinia stage Venus: -3

How did CNC[C@@H]1Oc2ccc(NC(=O)C3CCCCC3)cc2C(=O)N([C@H](C)CO)C[C@H]1C do in these assays?
Vaccinia stage: 10; Vaccinia stage Venus: -8

What do the screens show for `C[C@@H]1CN([C@H](C)CO)C(=O)c2cc(NC(=O)Nc3ccc(F)cc3)ccc2O[C@@H]1CN(C)C(=O)Nc1cccc2ccccc12`?
Vaccinia stage: 26; Vaccinia stage Venus: 17

How did CC(=O)N(C)C[C@@H]1Oc2cc(-c3ccc(F)cc3)ccc2S(=O)(=O)N([C@H](C)CO)C[C@@H]1C do in these assays?
Vaccinia stage: -4; Vaccinia stage Venus: -6

How did C[C@@H]1CN([C@H](C)CO)C(=O)c2c(c3ccccc3n2C)-c2ccccc2CO[C@@H]1CN(C)CC1CC1 do in these assays?
Vaccinia stage: -20; Vaccinia stage Venus: -19

What do the screens show for `CC(C)NC(=O)N1CC[C@@H]2[C@H]1c1cc(-c3ccc(F)cc3)ccc1N(C)[C@@H]2CO`?
Vaccinia stage: -6; Vaccinia stage Venus: -3

What do the screens show for `O=C(N[C@H]1CC[C@H](CCNC(=O)C2CC2)O[C@@H]1CO)c1ccccn1`?
Vaccinia stage: 5; Vaccinia stage Venus: 3

What do the screens show for `C[C@H]1CN([C@@H](C)CO)C(=O)c2cccc(NC(=O)c3cnccn3)c2O[C@H]1CN(C)Cc1ccncc1`?
Vaccinia stage: 5; Vaccinia stage Venus: -1

How did C[C@H](CO)N1C[C@H](C)[C@H](CN(C)CC2CC2)Oc2c(NC(=O)c3ccc(-c4nccs4)cc3)cccc2C1=O do in these assays?
Vaccinia stage: 16; Vaccinia stage Venus: 13

How did C[C@@H]1CN([C@H](C)CO)C(=O)Cc2cc(NC(=O)c3ccncc3)ccc2O[C@H]1CN(C)S(=O)(=O)c1cccs1 do in these assays?
Vaccinia stage: 18; Vaccinia stage Venus: 14

What do the screens show for `O=C(NCC1CC1)[C@@H]1[C@@H](CO)[C@@H]2Cn3c(ccc(-c4cccnc4)c3=O)[C@@H]2N1C(=O)NC1CCCC1`?
Vaccinia stage: 10; Vaccinia stage Venus: 6

What do the screens show for `C[C@@H]1CCCCO[C@H](CN(C)S(C)(=O)=O)[C@@H](C)CN([C@@H](C)CO)C(=O)c2cc(NC(=O)Nc3ccc4c(c3)OCO4)ccc2O1`?
Vaccinia stage: 11; Vaccinia stage Venus: 9

How did COc1ccccc1C#Cc1ccc2c(c1)O[C@H](CN(C)Cc1cccnc1)[C@H](C)CN([C@@H](C)CO)S2(=O)=O do in these assays?
Vaccinia stage: inconclusive

How did C[C@@H]1CN([C@@H](C)CO)C(=O)c2cc(NC(=O)CCCCCC(=O)Nc3ccccc3N)ccc2O[C@H]1CN(C)C(=O)Nc1ccccc1 do in these assays?
Vaccinia stage: 4; Vaccinia stage Venus: -3

Results for CO[C@@H]1CN(C)C(=O)c2ccc(NC(=O)C3CC3)cc2OC[C@@H](C)N(Cc2ccccc2)C[C@H]1C ?
Vaccinia stage: -6; Vaccinia stage Venus: 2

Results for CC=Cc1ccc2n(c1=O)C[C@@H]1[C@@H](CO)[C@H](C(=O)NCCC)N(CCC(F)(F)F)[C@H]21 (mixture of isomers) ?
Vaccinia stage: -27; Vaccinia stage Venus: -3

What do the screens show for `CC(C)NC(=O)NCC[C@H]1CC[C@H](NC(=O)c2ccc(F)cc2)[C@@H](CO)O1`?
Vaccinia stage: -2; Vaccinia stage Venus: 5

Results for CC(C)NC(=O)N(C)C[C@H]1OCc2cnnn2CCCC(=O)N([C@H](C)CO)C[C@H]1C ?
Vaccinia stage: 13&8; Vaccinia stage Venus: 21&9

Results for COc1ccc(CN(C)C[C@@H]2OCCCC[C@H](C)Oc3ccc(NS(=O)(=O)c4ccc(Cl)cc4)cc3C(=O)N([C@H](C)CO)C[C@H]2C)cc1 ?
Vaccinia stage: inconclusive

How did COc1ccc(CN(C)C[C@H]2OCCCC[C@@H](C)Oc3ccc(NC(=O)CCCN(C)C)cc3C(=O)N([C@@H](C)CO)C[C@H]2C)cc1 do in these assays?
Vaccinia stage: 2; Vaccinia stage Venus: -4

How did COc1ccc(S(=O)(=O)N(C)C[C@H]2Oc3c(NS(=O)(=O)c4ccc(C)cc4)cccc3C(=O)N([C@@H](C)CO)C[C@@H]2C)cc1 do in these assays?
Vaccinia stage: -10; Vaccinia stage Venus: -4

How did CCN1[C@@H]2c3ccc(-c4cncnc4)c(=O)n3C[C@@H]2[C@@H](CO)[C@@H]1C(=O)OC do in these assays?
Vaccinia stage: 8; Vaccinia stage Venus: 11

What do the screens show for `O=C(NCC1CCCCC1)[C@H]1[C@H](CO)[C@H]2Cn3c(ccc(C4=CCCCC4)c3=O)[C@@H]1N2`?
Vaccinia stage: -4; Vaccinia stage Venus: -4

How did CN1C(=O)c2cc(NC(=O)Cc3cccs3)ccc2OC[C@H]2O[C@H](CC(=O)NCCc3ccncc3)CC[C@H]21 do in these assays?
Vaccinia stage: 8; Vaccinia stage Venus: 14

How did C[C@H]1CN([C@@H](C)CO)C(=O)c2cc(NS(=O)(=O)c3cccs3)ccc2O[C@@H]1CN(C)C(=O)Nc1cccc2ccccc12 do in these assays?
Vaccinia stage: 10; Vaccinia stage Venus: 15

Results for CC(C)NC(=O)N(C)C[C@@H]1Oc2cc(C#Cc3ccccn3)ccc2S(=O)(=O)N([C@@H](C)CO)C[C@@H]1C ?
Vaccinia stage: 9; Vaccinia stage Venus: 0

Results for C[C@@H]1CN([C@@H](C)CO)S(=O)(=O)c2ccc(C3=CCCC3)cc2O[C@@H]1CN(C)Cc1ccccc1F ?
Vaccinia stage: -7; Vaccinia stage Venus: -14

Results for C[C@@H]1CCCCO[C@H](CN(C)C)[C@H](C)CN([C@H](C)CO)C(=O)c2cc(NC(=O)c3ccncc3)ccc2O1 ?
Vaccinia stage: -9; Vaccinia stage Venus: -2

How did COc1cccc(C(=O)Nc2ccc3c(c2)C(=O)N(C)[C@@H]2CC[C@@H](CC(=O)NCCCN4CCOCC4)O[C@@H]2CO3)c1 do in these assays?
Vaccinia stage: -6; Vaccinia stage Venus: 5

How did CCCNC(=O)N[C@H]1C=C[C@@H](CC(=O)NC2CCCCC2)O[C@H]1CO do in these assays?
Vaccinia stage: -4; Vaccinia stage Venus: -1

Source: PubChem (Broad Institute)
